Compound activity: PubChem BioAssay, Broad Institute
rRNA inh HTS – inhibits bacterial ribosomal RNA function over humanized ribosomes | E. coli WT GFP vs humanized-ribosome RFP mutants, fluorescence, 24 h; stronger effect = lower value; DMSO median 0, no signal -100 | GFP signal change (wild-type ribosome), % (concentration not given with the values) | 350,000 compounds, 1.6% hits | AID 720706;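 active means significant combined selectivity score with lowered wild-type GFP, culture density cut under 30%, mutant RFP and density less affected; inactive means any of these conditions unmet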; further: one replicate is shown; some compounds called inactive have numbers as strong as hits
rRNA inh HTS OD600 – further read-out of rRNA inh HTS, marked with its call; OD600 change, %; measured here: OD600 growth;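 optical density of the mix in the first replicate; 0 = DMSO median and -100 = no signal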
rRNA inh HTS RFP – further read-out of rRNA inh HTS, marked with its call; RFP signal change, %; measured here: RFP humanized mutant strains;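 first replicate; 0 = DMSO median and -100 = no signal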
Starred values were filed as active, the others as inactive; & = joins results of further samples. These rows are one share of the data (hit frequency here may not be typical).

SMILES | rRNA inh HTS | rRNA inh HTS OD600 | rRNA inh HTS RFP
CO[C@@H]1CN(C)C(=O)c2cc(NS(C)(=O)=O)ccc2OC[C@H](C)N(Cc2cncnc2)C[C@@H]1C | 3 | 6 | 0.2
COc1ccc(S(=O)(=O)N(C)C[C@H]2Oc3ccc(NC(=O)Nc4c(C)noc4C)cc3C(=O)N([C@@H](C)CO)C[C@@H]2C)cc1 | 0 | 1 | -4.1
CC(C)NC(=O)N[C@@H]1CC[C@@H](CCNC(=O)C2CCOCC2)O[C@@H]1CO | 1 | 3 | -2.8
C[C@H]1CN([C@@H](C)CO)C(=O)CCCn2nncc2CO[C@H]1CN(C)C(=O)Nc1ccnc(N2CCOCC2)c1 | 0&4 | 3&2 | 2.8&-2.1
COc1ccc(C(=O)N2C[C@@H]3[C@H](c4ccccc42)[C@@H](CO)N3C(=O)NC(C)C)cc1 | 1 | 17 | -0.8
CS(=O)(=O)N1C[C@@H]2C(c3ccc(-c4ccc(F)cc4)cc3)[C@H](C1)N2CC1CC1 (stereo partly specified) | -12 | -24 | 0.0
CCCC#Cc1ccc([C@H]2[C@@H](CO)N3C(=O)CN(C(=O)c4ccncc4)C[C@H]23)cc1 | -5 | 12 | -1.4
Cc1ccc(S(=O)(=O)Nc2ccc3c(c2)C(=O)N([C@H](C)CO)C[C@H](C)[C@@H](CN(C)C(=O)Cc2ccccc2)OCCCC[C@H](C)O3)cc1 | 0 | -8 | 8.5
Cc1noc(C)c1S(=O)(=O)Nc1ccc2c(c1)C(=O)N([C@@H](C)CO)C[C@H](C)[C@@H](CN(C)S(=O)(=O)c1ccc(Cl)cc1)OCCCC[C@@H](C)O2 | 3 | -1 | 0.4
COCC(=O)Nc1ccc2c(c1)[C@H]1C[C@@H](CC(=O)NCc3cc(F)ccc3F)O[C@@H](CO)[C@H]1O2 | -1 | -2 | -2.0
N#C[C@H]1[C@@H](c2ccc(C3=CCCCC3)cc2)[C@H](CO)N1S(=O)(=O)c1ccccc1 | -39 | -56 | 6.6
CCCS(=O)(=O)NC(=O)C1(C)CCN(C(=O)c2cc(F)ccc2C)C1 (stereo unspecified) | 5 | 6 | 3.2
COc1cccc(NC(=O)N[C@@H]2C=C[C@@H](CC(=O)NCc3ccccn3)O[C@H]2CO)c1 | 3 | 3 | -2.3
O=C(Nc1ccccc1F)N1C[C@H]2[C@@H](c3ccccc31)[C@H](CO)N2C(=O)C1CCCC1 | 2 | 0 | 8.2
C[C@@H]1CN([C@H](C)CO)C(=O)c2cccc(NC(=O)c3ccc(-c4nccs4)cc3)c2O[C@H]1CN(C)CC1CC1 | -3 | -22 | -2.0
CCN1[C@@H]2c3ccc(-c4cccc(F)c4)c(=O)n3C[C@@H]2[C@@H](CO)[C@@H]1C(=O)OC | 2 | 2 | -2.3
CC(C)NC(=O)N(C)C[C@H]1Oc2c(NC(=O)CCCCCC(=O)Nc3ccccc3N)cccc2C(=O)N([C@@H](C)CO)C[C@H]1C | 6 | 7 | -0.4
O=C(CN1CCOCC1)N1CC(=O)N2[C@H](C1)[C@H](c1ccc(/C=C/c3ccccc3)cc1)[C@@H]2CO | 3 | 10 | 2.9
COc1ccc(C(C)(NC(C)=O)c2nc(-c3cnc4ccccc4c3)cs2)cc1 (stereo unspecified) | -9 | -10 | -6.0
CC1(Cc2ccccc2OC(F)(F)F)C(=O)Nc2ccc(-c3ccsc3)cc21 (stereo unspecified) | 1 | -17 | -0.5
O=C(NC1CCCCC1)[C@H]1[C@H](CO)[C@H]2Cn3c(cccc3=O)[C@H]2N1C(=O)CC1CC1 | 1 | -2 | 0.6
CC(C)NC(=O)N(C)C[C@H]1Oc2c(cccc2N(C)C)C(=O)N(C)C[C@@H]1C | -2 | -3 | -3.0
C[C@@H]1CN([C@H](C)CO)C(=O)c2cc(NS(=O)(=O)c3ccccc3)ccc2O[C@H]1CN(C)S(=O)(=O)c1cccs1 | -8 | -2 | -0.2
CC=Cc1ccc2n(c1=O)C[C@@H]1[C@@H](CO)[C@H](C(=O)N[C@@H](C)c3ccccc3)[C@H]2N1Cc1cncnc1 (mixture of isomers) | 3 | 16 | 0.2
Cc1cccc(C)c1NC(=O)C(c1ccccc1F)n1c(=O)c(-c2cc3ccccc3[nH]2)nc2ccccc21 (stereo unspecified) | 12 | 6 | 4.0
C[C@@H]1CN([C@H](C)CO)C(=O)c2cc(NC(=O)Nc3ccccc3)ccc2O[C@@H]1CN(C)Cc1ccc(C(F)(F)F)cc1 | 4 | -34 | 25
CCOC(=O)[C@]12CCCC=C1N(CCC1=CCCCC1)C(=O)[C@H](CC(=O)NCc1cccs1)C2 | -11 | -22 | 0.1
COc1ccccc1S(=O)(=O)N[C@H]1CC[C@H](CC(=O)N2CCOCC2)O[C@H]1CO | 3 | 12 | -3.1
N#C[C@H]1[C@@H](c2ccccc2-c2ccccc2F)[C@H](CO)N1C(=O)c1ccccn1 | -9 | -10 | -0.3
O=C(C[C@H]1CC[C@@H](NC(=O)Nc2ccc(F)cc2)[C@H](CO)O1)NCc1cccc(F)c1 | 0 | -3 | -0.4
CCC(=O)N1CC(=O)N2[C@H](CO)[C@H](c3ccc(C#Cc4cccnc4)cc3)[C@H]2C1 | 3 | -5 | -1.0
COc1ccc(NC(=O)Nc2ccc3c(c2)CC(=O)N([C@@H](C)CO)C[C@H](C)[C@H](CN(C)C(=O)Nc2ccc(F)cc2)O3)cc1 | 3 | 2 | -2.7
CC=Cc1ccc2n(c1=O)C[C@H]1[C@H](CO)[C@@H](C(=O)N(C)C)[C@@H]2N1Cc1cc(F)ccc1F (mixture of isomers) | 2 | -1 | -0.2
CNC[C@@H]1Oc2c(NC(=O)c3cc(C)nn3C)cccc2C(=O)N([C@@H](C)CO)C[C@@H]1C | 9 | 7 | 0.0
Cc1ccc(S(=O)(=O)N[C@@H]2CC[C@@H](CCNC(=O)Nc3ccc(Cl)cc3)O[C@@H]2CO)cc1 | -11 | -25 | 7.6
CC(C)NC(=O)N(C)C[C@@H]1Oc2c(NS(C)(=O)=O)cccc2C(=O)N(C)C[C@@H]1C | 2 | 6 | -2.5
CC(C)CC#Cc1ccc([C@@H]2[C@H](CO)N3CCCCN(C(=O)NC4CCCC4)C[C@@H]23)cc1 | -57 | -72 | -12
CN1CCN(c2ccc(CNC(=O)C3(C)Cc4c(-c5ccc6c(c5)OCO6)ccnc4O3)cc2)CC1 (stereo unspecified) | 4 | -5 | -3.5
CC(C)(C)OC(=O)[C@H](Cc1ccccc1)NC(=O)c1[nH]cnc1C(=O)Nc1ccccc1F | 6 | -3 | 3.6
Cc1ccccc1-c1csc(C(C)(O)c2cccnc2)n1 (stereo unspecified) | -11 | -18 | -10
Cn1nc(-c2ccccc2)cc1NC(=O)[C@@H]1O[C@H](CO)[C@H](O)[C@H](O)[C@H]1O | 10 | 23 | -1.6
C[C@H]1CN([C@@H](C)CO)C(=O)c2cc(NS(=O)(=O)c3cn(C)cn3)ccc2O[C@@H]1CN(C)C(=O)Nc1ccc(F)cc1 | -6 | -9 | -0.6
CCCC(=O)Nc1ccc2c(c1)C(=O)N(C)C[C@H](OC)[C@@H](C)CN(Cc1ccccc1)[C@@H](C)CO2 | 1 | -6 | 1.2
COc1ccc(-c2csc(C(C)(O)c3cccnc3)n2)cn1 (stereo unspecified) | 2 | 6 | -0.1
O=C(C[C@@H]1C[C@H]2c3cc(NC(=O)CC4CC4)ccc3O[C@H]2[C@H](CO)O1)NCc1ccc(Cl)cc1 | -5 | -10 | 0.6
C[C@@H]1CN([C@H](C)CO)C(=O)c2cccc(NC(=O)NC3CCCCC3)c2O[C@@H]1CN(C)Cc1ccc(C(=O)O)cc1 | 5 | 6 | 1.2
COc1ccc(C(C(=O)NC2CCCC2)n2c(C3CCN(C(C)=O)CC3)nc3ccccc32)cc1 (stereo unspecified) | 8 | -5 | -2.3
C[C@@H]1CN([C@H](C)CO)C(=O)Cc2cc(NC(=O)C3CCCCC3)ccc2O[C@H]1CN(C)Cc1ccc(Oc2ccccc2)cc1 | -1 | -2 | 0.4
CN(C)c1ccc(-c2ccnc3c2CC(C)(C(=O)NCCc2ccccc2)O3)cc1 (stereo unspecified) | -21 | -49 | -17
Cc1cccc(C)c1NC(=O)C1(C)CSCC(=O)N1Cc1cccc(C(F)(F)F)c1 (stereo unspecified) | -6 | -10 | 1.0
CCC(=O)N(C)C[C@H]1Oc2cc(Br)ccc2S(=O)(=O)N([C@H](C)CO)C[C@H]1C | -3 | 3 | -4.1
Cc1noc(C)c1NC(=O)N(C)C[C@H]1Oc2ccc(NC(=O)Nc3ccc(C(F)(F)F)cc3)cc2CC(=O)N([C@H](C)CO)C[C@@H]1C | 1 | 4 | 0.3
COc1ccc2c(c1)[C@@H](NC(=O)C(F)(F)F)[C@@H]1CCCC[C@]21c1ccccc1 | 34 | 29 | 2.4
COCC(=O)N1CC(=O)N2[C@H](C1)[C@H](c1ccc(-c3ccccc3F)cc1)[C@@H]2CO | 5 | 23 | -3.2
C[C@H](O)C#Cc1ccc([C@@H]2[C@@H](CO)N3CCCCN(C(=O)c4ccncc4)C[C@H]23)cc1 | 5 | 3 | 0.5
C[C@@H]1CCCCO[C@H](CN(C)S(=O)(=O)c2ccc(F)cc2)[C@H](C)CN([C@H](C)CO)C(=O)c2cc(NC(=O)Nc3ccc(F)cc3)ccc2O1 | 0 | 7 | 0.2
Cc1noc(C)c1NC(=O)Nc1cccc2c1O[C@@H](CN(C)Cc1ccncc1)[C@H](C)CN([C@@H](C)CO)C2=O | 0 | 5 | 1.5
COCCN1Cc2cc(C(=O)OC)c3c(c2C1=O)c1ccccc1n3S(=O)(=O)c1ccc(OC)cc1 | -1 | -5 | 1.5
CC(=O)Nc1cccc2c1O[C@H](CN(C)S(C)(=O)=O)[C@@H](C)CN(C)C2=O | -1 | 1 | -0.6
C[C@@H]1CN([C@@H](C)CO)C(=O)Cc2cc(NC(=O)CCN3CCOCC3)ccc2O[C@@H]1CN(C)Cc1ccc(-c2ccccc2)cc1 | 2 | -6 | 16

Structures listed so far with a thiophene ring, fused or not (three):
SMILES | rRNA inh HTS | rRNA inh HTS OD600 | rRNA inh HTS RFP
CC1(Cc2ccccc2OC(F)(F)F)C(=O)Nc2ccc(-c3ccsc3)cc21 (stereo unspecified) | 1 | -17 | -0.5
C[C@@H]1CN([C@H](C)CO)C(=O)c2cc(NS(=O)(=O)c3ccccc3)ccc2O[C@H]1CN(C)S(=O)(=O)c1cccs1 | -8 | -2 | -0.2
CCOC(=O)[C@]12CCCC=C1N(CCC1=CCCCC1)C(=O)[C@H](CC(=O)NCc1cccs1)C2 | -11 | -22 | 0.1

Next results
SMILES | rRNA inh HTS | rRNA inh HTS OD600 | rRNA inh HTS RFP
CCCNC(=O)N1CC(=O)N2[C@@H](CO)[C@H](c3ccc(C#CCC4CCCC4)cc3)[C@@H]2C1 | -44 | -69 | 6.5
O=C(C[C@H]1CC[C@H]2[C@@H](COC[C@@H](O)CN2C(=O)c2ccncc2)O1)NC1Cc2ccccc2C1 | 3 | 3 | -2.8
COCC(=O)N1C[C@@H](C)[C@@H](OC)CN(C)C(=O)c2ccc(NC(=O)c3cnccn3)cc2OC[C@H]1C | 2&12 | 1&11 | 1.6&-1.2
COC(=O)C[C@@H]1C[C@H]2c3cc(N(C)C)ccc3O[C@H]2[C@H](CO)O1 | 6 | 16 | 3.8
CCC(=O)N(CC(C)C)C[C@@H]1[C@@H](c2ccccc2)[C@@H](CO)N1S(C)(=O)=O | 1 | -1 | -1.0
C[C@H](CO)N1C[C@H](C)[C@H](CN(C)S(=O)(=O)c2cccc(F)c2)Oc2ncc(C#CC3CCCC3)cc2C1=O | 5 | -11 | 2.4
O=c1[nH]c(=S)n2c(c1-c1ccccc1)OC(CBr)C2 (stereo unspecified) | 1 | 15 | -4.4
COc1ccc2c3c([nH]c2c1)[C@@H](CO)N(C(=O)Nc1ccc(F)cc1)CC31CCN(C(=O)Cc2ccccc2)CC1 | -2 | -8 | 11

Compound profiles, from the list above.
`CCCNC(=O)N1CC(=O)N2[C@@H](CO)[C@H](c3ccc(C#CCC4CCCC4)cc3)[C@@H]2C1` as listed: rRNA inh HTS: -44; rRNA inh HTS OD600: -69; rRNA inh HTS RFP: 6.5
`O=c1[nH]c(=S)n2c(c1-c1ccccc1)OC(CBr)C2` (stereo unspecified) as listed: rRNA inh HTS: 1; rRNA inh HTS OD600: 15; rRNA inh HTS RFP: -4.4
